miR-21 reporter = miR-21 reporter, rising signal; AID 2288; 340,000 tested, under 10 active; HeLa miR-21 FLuc reporter, luciferase, 48 h; Potency, µM (highest dose often 38.3 µM), for the others: top-dose reporter change, positive = more light; active = well fitted rising curve with a large enough effect; inconclusive = small, poorly fitted or top-dose-only effect; inactive = no such curve, though single readings can be large or run the other way;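 also: % of control where 0% means no effect; miR-21 action dims this reporter so a rising signal means less miR-21 action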
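HeLa cells endogenously expressing miR-21, stably carrying CMV-driven firefly luciferase with a downstream miR-21 binding site, 2000 cells/well. Titrations up to approximately 40 uM, 48 hours; luciferase luminescence read.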
GLA inh pH 4.5 = inhibitors of human alpha-galactosidase A at pH 4.5 | 230,000 tested, under 10 active | purified enzyme, 4-MU-alpha-Gal fluorescence, pH 4.5 | AID 1467 | activity change, negative = inhibition, % at 105 µM | P06280; inconclusive = small, poorly fitted or top-dose-only inhibition, or a rising curve; inactive = flat fitted curve, though single readings scatter; no compound was filed as active;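 also: 0% = full activity with enzyme and -100% = basal without enzyme; dose as in the result columns while the protocol names 77 µM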
Rango dissoc inh = prevents RanGTP from dissociating the Rango-importin beta complex | Biochemical FRET Rango-importin beta, RanGTP-induced dissociation | Potency, µM (doses to about 46.1 µM), for the others: at the highest dose activity change, negative = inhibition | 340,000 compounds, 0.071% hits | AID 540253; active means falling FRET ratio curve, often poorly fitted, with flat reads before Ran was added; inconclusive means other falling curves, or compound fluorescence or quenching; inactive means flat or rising ratio curve;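 also: potency is read from the fitted curve at half-maximal effect; % of control where 0% means no effect; nearly all actives have a fitted effect of over 45% in size; -100% = wells without RanGTP and RCC1; the record marks most hits as doubtful in a second field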
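Rango (0.1 uM)–importin beta (0.25 uM) complex; RanGTP-RCC1 trigger; 45 min RT; CFP/YFP FRET read.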
Rango-impB inh = Rango-importin beta binding inhibition; 340,000 compounds, 0.031% hits; Rango CFP/YFP FRET sensor + importin beta, 45 min; Potency, µM (doses to about 92.2 µM), without a hit: at the top dose inhibition of complex formation; Q14974; active = rising FRET ratio curve, often small or poorly fitted; inconclusive = mostly compound fluorescence or quenching in the first reads; inactive = flat curves in all reads;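 also: potency is read from the fitted curve at half-maximal effect; 0% = DMSO wells and 100% = buffer wells lacking importin beta; nearly all actives have a fitted effect of over 15% in size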
Target sequence (Q14974 whole entry, looked up): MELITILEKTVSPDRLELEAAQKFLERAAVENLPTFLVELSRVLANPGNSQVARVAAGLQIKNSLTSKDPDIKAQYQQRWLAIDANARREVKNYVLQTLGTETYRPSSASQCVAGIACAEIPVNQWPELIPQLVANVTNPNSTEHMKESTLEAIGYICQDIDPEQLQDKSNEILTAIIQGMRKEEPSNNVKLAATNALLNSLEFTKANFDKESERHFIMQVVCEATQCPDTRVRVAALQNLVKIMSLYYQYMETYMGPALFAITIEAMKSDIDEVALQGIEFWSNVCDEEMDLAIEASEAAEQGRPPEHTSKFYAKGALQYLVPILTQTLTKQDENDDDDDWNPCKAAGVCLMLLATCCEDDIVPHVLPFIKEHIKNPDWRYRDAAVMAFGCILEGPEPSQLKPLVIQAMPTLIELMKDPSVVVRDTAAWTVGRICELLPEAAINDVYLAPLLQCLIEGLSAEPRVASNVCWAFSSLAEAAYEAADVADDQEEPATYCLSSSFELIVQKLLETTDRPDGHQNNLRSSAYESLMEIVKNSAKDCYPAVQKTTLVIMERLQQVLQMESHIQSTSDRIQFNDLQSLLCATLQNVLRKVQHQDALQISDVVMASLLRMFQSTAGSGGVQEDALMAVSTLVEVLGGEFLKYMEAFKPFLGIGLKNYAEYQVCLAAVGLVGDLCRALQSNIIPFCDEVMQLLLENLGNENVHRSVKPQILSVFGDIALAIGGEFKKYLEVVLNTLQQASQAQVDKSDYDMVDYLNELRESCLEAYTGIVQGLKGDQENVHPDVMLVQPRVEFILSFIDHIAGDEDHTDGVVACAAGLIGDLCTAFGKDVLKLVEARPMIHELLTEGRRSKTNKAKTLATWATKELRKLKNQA
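Inhibition scored from the CFP 486 nm/YFP 530 nm FRET ratio 45 min after adding 0.125 microM importin beta to 50 nM Rango biosensor preincubated 5 min with compound (room temperature, PBS with DTT, Tween-20, BSA). No-importin wells as positive control.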
The depositor's hits bear a star; ? = inconclusive; . = no result given; & = joins results of further samples. This is a subset; the hit share may differ from the screen's.

SMILES	miR-21 reporter	GLA inh pH 4.5	Rango dissoc inh	Rango-impB inh
CC(Oc1ccc(F)cc1)C(=O)Oc1ccc(N(C)S(=O)(=O)c2ccccc2)cc1 (configuration not stated)	.	.	2.6%	2.8%
CC(=O)c1sc(-c2ccc(F)cc2)cc1NS(=O)(=O)c1ccccc1	-19.1%	-7.9	5.9%	-0.3%
Cc1nc(N2CCN(C(=O)c3ccco3)CC2)c2oc3ccccc3c2n1	23.9%	7.7	-6.8%	3.2%
O=C(Nc1ccc(S(=O)(=O)N2CCCCC2)cc1)C1CCN(C(=O)c2ccco2)CC1	14.6%	.	4.5%	1.7%
CC(C)[C@H](NS(=O)(=O)c1ccccc1)C(=O)OCn1nnc2ccccc2c1=O	0.4%	3.0	-10.6%	1.4%
CC1=CC(C)(C)N(C(=O)Nc2ccccc2)c2ccccc21	-5.2%	-2.7	2.7%	0.8%
CCc1ccc(-n2cc(-c3ccc(F)cc3)[n+]3c2SCCC3)cc1	?	-21.1	-14.0%	12.3%
O=C1Cc2cc(S(=O)(=O)N3CCNCC3)ccc2N1	.	.	0.6%	0.0%
S=C1NCN(Cc2ccccc2)CN1	-1.0%	2.9	-0.3%	-1.4%
Cc1c(N(C)S(=O)(=O)c2cccc(C(=O)NCC3CCCO3)c2)c(=O)n(-c2ccccc2)n1C (configuration not stated)	.	.	11.0%	-2.9%
Cc1cc(C)cc(NC(=O)CSc2nnc(Cc3cccn3C)n2-c2ccc(F)cc2)c1	0.5%	2.6	9.1%	4.2%
CN(C)c1ccc(/C=C(/NC(=O)c2ccccc2)C(=O)N/N=C/c2ccc([N+](=O)[O-])c(O)c2)cc1	-19.0%	-28.0	-20.3%	-0.4%
c1cc(-c2nc3cc(Cc4ccc5oc(-c6ccncc6)nc5c4)ccc3o2)ccn1	-5.4%	-4.4	.	.
COC(=O)c1ccc(COC(=O)c2ccc(C)c(S(=O)(=O)N3CCCCC3)c2)cc1	.	.	-10.8%	-1.6%
CCOc1ccc(-n2cnnn2)cc1S(=O)(=O)N1CCCCC1	-0.5%	-18.3	0.9%	-2.3%
Nc1ccccc1SCc1ccccc1	-1.6%	4.4	?	-1.6%
O=C(O)CSCC(=O)NCc1ccccc1	-16.3%	-6.1	6.2%	4.4%
CSc1ccccc1C(=O)N1CCC(CCC(=O)NCc2ccc(F)cc2)CC1	4.6%	.	0.9%	-1.2%
O=C1c2ccc(Oc3ccc4c(c3)C(=O)N(CCCCO)C4=O)cc2C(=O)N1CCCCO	-5.3%	-7.1	0.9%	3.4%
COc1ccc(C2(c3ccc(OC)cc3)NC(=O)N(CC(=O)NC(C)C)C2=O)cc1	-1.4%	.	-4.6%	-2.9%
O=C(c1ccc(N2CCOCC2)c([N+](=O)[O-])c1)N1CCN(S(=O)(=O)c2cccs2)CC1	0.5%	-1.0	-0.8%	0.2%
CCOc1cccc(C(=O)Nc2ccncc2)c1	2.1%	3.6	2.6%	5.3%
Cc1nnc(-c2ccccc2)[nH]c1=O	1.6%	2.7	-6.5%	1.3%
O=C(C(=O)N1CCN(c2ccc([N+](=O)[O-])cc2)CC1)c1cn(CC(=O)N2CCOCC2)c2ccccc12	7.2%	.	-2.0%	1.6%
COc1ccc(Cl)cc1C(=O)CSc1nc(N)cc(N)n1	-24.9%	8.2	-2.9%	0.0%
SMILES	miR-21 reporter	GLA inh pH 4.5	Rango dissoc inh	Rango-impB inh
CCCCN1C(=N)N([C@@H](C)CN2CCC[C@H]2CN2C(N)=NC[C@H]2CC(C)C)C[C@H]1[C@H](C)CC	.	.	12.2%	-1.6%
CC(C)(C)c1ccc(-c2nc(C#N)c(NCc3cccnc3)o2)cc1	-57.9%	0.7	-1.4%	4.6%
COc1cc2c(C(=O)N3CCN(C)CC3)c(CSc3ccccc3)n(C)c2cc1Br	18.8%	-18.9	-1.7%	-3.0%
Cc1ccc(NC(=O)CCNC(=O)c2ccccc2Cl)cc1S(=O)(=O)N(C)C	-5.2%	-13.9	2.6%	-0.8%
CCCNC(=O)c1ccc(Cl)c(Cl)c1	-6.5%	3.7	-8.2%	3.4%
O=C(COC(=O)c1ccc2c(c1)C(=O)N(CCc1ccccc1)C2=O)Nc1ccc(OC(F)F)cc1	-1.7%	-1.6	11.3%	5.7%
CCOC(=O)CN(C(=O)CSc1nnc(CNc2ccc(F)cc2)n1C)c1ccccc1	-1.6%	9.3	20.0%	?
CCOc1ccc(C(=O)COC(=O)c2nc3nccc(C)n3n2)cc1	.	.	5.8%	-3.0%
Cc1nn(C(C)C(=O)Nc2ccc(Cl)cn2)c(C)c1[N+](=O)[O-] (configuration not stated)	0.5%	-6.8	1.3%	1.5%
C/C(=N\NC(=O)c1ccc(Cl)cc1)c1cccc(NC(=O)c2cccnc2)c1	-33.9%	-5.5	0.5%	6.5%
COc1ccc(C)cc1S(=O)(=O)Nc1ccccc1C	-6.1%	4.0	-3.0%	-3.8%
Cc1cc(OC(=O)c2ccccc2Br)c([N+](=O)[O-])c(=O)[nH]1	-1.1%	.	-5.0%	5.3%
O=[N+]([O-])c1cc(S(=O)(=O)Nc2ccccc2)ccc1N1CCN(c2ccc(O)cc2)CC1	1.4%	0.7	?	-1.3%
Cc1cccc(OCCn2cc(/C=N/NC(=O)c3ccncc3)c3ccccc32)c1	0.2%	-14.2	-13.3%	-1.7%
CCOc1cccc(CNCCNC(=O)c2nonc2N)c1	-7.2%&-9.4%	0.1	-2.1%	-5.2%
O=C(NCCc1nc2ccccc2[nH]1)/C(=C/c1ccco1)NC(=O)c1ccc(Br)cc1	-3.5%	0.2	-13.0%	-0.8%
CC(=O)c1ccc(NC(=O)C(C)Sc2nnc(C3CC3)n2C2CC2)cc1 (configuration not stated)	.	.	-0.7%	0.4%
S=C(NCCc1ccccc1)N1CCCC1	.	.	9.5%	-2.7%
Cn1c(SCc2ccc([N+](=O)[O-])cc2)nnc1-c1cccnc1	0.1%	1.5	7.6%	-1.5%
CCOCCCNC(=O)C1CCN(S(=O)(=O)N(CC(C)C)CC(C)C)CC1	-4.3%	-1.4	-5.2%	-6.2%
CCOC(=O)COc1c(/C=N\OC)cc(Cl)cc1OC	0.2%	-10.4	24.0%	3.7%
Cc1ccc(-n2nc(C)c3c2OC(N)=C(C#N)C3c2ccoc2)cc1 (configuration not stated)	0.8%	9.5	2.0%	?
Cc1ccc(C)c(N(Cc2ccccc2F)S(C)(=O)=O)c1	1.3%	1.7	0.8%	-3.9%
CS(=O)(=O)N1CCC(C(=O)NCc2ccc(Cl)cc2Cl)CC1	-4.9%	10.6	-13.4%	0.4%
Cc1cc(C)n(-c2ccc(Cl)c(C(=O)Nc3ccc(OC(F)(F)F)cc3)n2)n1	-1.4%	-1.3	-7.9%	1.9%

Copied from the listing, 15 compounds:
SMILES	miR-21 reporter	GLA inh pH 4.5	Rango dissoc inh	Rango-impB inh
COc1ccc(C)cc1S(=O)(=O)Nc1ccccc1C	-6.1%	4.0	-3.0%	-3.8%
Cc1cc(OC(=O)c2ccccc2Br)c([N+](=O)[O-])c(=O)[nH]1	-1.1%	.	-5.0%	5.3%
O=[N+]([O-])c1cc(S(=O)(=O)Nc2ccccc2)ccc1N1CCN(c2ccc(O)cc2)CC1	1.4%	0.7	?	-1.3%
Cc1cccc(OCCn2cc(/C=N/NC(=O)c3ccncc3)c3ccccc32)c1	0.2%	-14.2	-13.3%	-1.7%
CCOc1cccc(CNCCNC(=O)c2nonc2N)c1	-7.2%&-9.4%	0.1	-2.1%	-5.2%
O=C(NCCc1nc2ccccc2[nH]1)/C(=C/c1ccco1)NC(=O)c1ccc(Br)cc1	-3.5%	0.2	-13.0%	-0.8%
CC(=O)c1ccc(NC(=O)C(C)Sc2nnc(C3CC3)n2C2CC2)cc1 (configuration not stated)	.	.	-0.7%	0.4%
S=C(NCCc1ccccc1)N1CCCC1	.	.	9.5%	-2.7%
Cn1c(SCc2ccc([N+](=O)[O-])cc2)nnc1-c1cccnc1	0.1%	1.5	7.6%	-1.5%
CCOCCCNC(=O)C1CCN(S(=O)(=O)N(CC(C)C)CC(C)C)CC1	-4.3%	-1.4	-5.2%	-6.2%
CCOC(=O)COc1c(/C=N\OC)cc(Cl)cc1OC	0.2%	-10.4	24.0%	3.7%
Cc1ccc(-n2nc(C)c3c2OC(N)=C(C#N)C3c2ccoc2)cc1 (configuration not stated)	0.8%	9.5	2.0%	?
Cc1ccc(C)c(N(Cc2ccccc2F)S(C)(=O)=O)c1	1.3%	1.7	0.8%	-3.9%
CS(=O)(=O)N1CCC(C(=O)NCc2ccc(Cl)cc2Cl)CC1	-4.9%	10.6	-13.4%	0.4%
Cc1cc(C)n(-c2ccc(Cl)c(C(=O)Nc3ccc(OC(F)(F)F)cc3)n2)n1	-1.4%	-1.3	-7.9%	1.9%

Some of these compounds in order of formula weight, ascending.
SMILES	miR-21 reporter	GLA inh pH 4.5	Rango dissoc inh	Rango-impB inh
COc1ccc(Cl)cc1C(=O)CSc1nc(N)cc(N)n1	-24.9%	8.2	-2.9%	0.0%
c1cc(-c2nc3cc(Cc4ccc5oc(-c6ccncc6)nc5c4)ccc3o2)ccn1	-5.4%	-4.4	.	.
O=C(C(=O)N1CCN(c2ccc([N+](=O)[O-])cc2)CC1)c1cn(CC(=O)N2CCOCC2)c2ccccc12	7.2%	.	-2.0%	1.6%

New compounds follow.
SMILES	miR-21 reporter	GLA inh pH 4.5	Rango dissoc inh	Rango-impB inh
Cc1onc(-c2c(Cl)cccc2Cl)c1C(=O)N1CCN(c2ncccn2)CC1	1.0%	-6.4	-6.3%	-1.5%
CC(C)[C@H](NS(=O)(=O)c1ccccc1)C(=O)OCC(=O)Nc1cccc(S(N)(=O)=O)c1	.	.	-1.7%	-0.4%
CCC(=O)NC(=S)Nc1cccc(NC(=O)c2ccc(Cl)cc2Cl)c1	0.3%	6.6	-1.2%	-2.2%
COC(=O)C(c1ccccc1)C(C(=O)OC)c1ccccc1 (configuration not stated)	-0.2%	.	6.4%	2.8%
CCC(=O)c1ccc(N2CCN(C(=O)c3ccccc3)CC2)c(F)c1	4.2%	-4.9	-3.6%	?
O=C(C1CCCO1)N(Cc1ccccc1)c1ccccc1 (configuration not stated)	-1.8%	-2.9	9.3%	-0.1%
CN(C)S(=O)(=O)c1ccc(S(=O)(=O)N2CCCC(C(=O)NC3CC3)C2)cc1 (configuration not stated)	1.2%	.	34.4%	-1.8%
N#Cc1cccc(NC(=O)COC(=O)Cn2nc(-c3ccccc3)oc2=O)c1	.	.	8.4%	-1.8%
O=C(c1oc2ccccc2c1N1CCCCC1)N1CCCCC1	-3.2%	-5.5	18.7%	-2.4%
CCN(Cc1nc2ccccc2c(=O)[nH]1)C(=O)c1cc(C2CC2)nn1-c1ccccc1	.	.	-1.4%	0.8%
Nc1nnc(SCc2ccc(F)cc2)n1-c1ccccc1	-4.6%	-0.8	6.4%	-1.7%
Cc1ccc(-n2c(C)c(C)c3c(N)ncnc32)cc1	-43.0%	.	2.0%	3.2%
Cc1ccc(SCC(=O)Nc2ccc(S(=O)(=O)Nc3ncccn3)cc2)cc1	-7.7%	-6.1	-15.9%	-0.2%
COc1ccc(COC(=O)N/C=C/c2ccco2)cc1	-1.5%	-3.0	-14.2%	?
CCOC(=O)CN(C(=O)CSc1nnc(-c2cccc(OC)c2)o1)c1ccc(F)cc1	-17.8%	6.5	-8.1%	-0.2%
Cc1cccc(NC2=NC(=S)N(c3ccc(C(=O)O)cc3)C23CCCCC3)c1	-7.9%	5.2	0.3%	3.2%
Cc1cccc(CNc2ncnc3ccc(-c4cccnc4)cc23)c1	.	-7.8	1.3%	3.3%
COC(=O)CSc1nc(N)c(C#N)c(CC(C)C)c1C#N	-4.4%	-1.7	13.1%	0.3%
CCNC(=O)C(Sc1ccccc1)c1ccccc1 (configuration not stated)	-9.6%	-13.1	2.2%	0.5%
CCOC(=O)Cn1nnc(-c2ccccc2)n1	-1.2%	-1.5	-10.4%	2.1%
CCN(CC(=O)Nc1c(F)cccc1F)C(=O)CCN1C(=O)c2cccc([N+](=O)[O-])c2C1=O	.	.	?	?
